# UCH37 DUB inh – inhibitors of human UCH37 deubiquitinase, primary screen, biochemical, Ub-AMC cleavage, fluorescence; Ubiquitin carboxyl-terminal hydrolase isozyme L5 (Homo sapiens), Q9Y5K5; purified proteasome/UCH37; inhibition, % (no concentration beside the values); 0.33% of 330,000 active; AID 588478, 2011;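 active = mean of two replicates above 20%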;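 also: 0% = compound-free wells with enzyme and 100% = wells lacking proteasome; stock transfer was 100 nL into about 20 µL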
#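 system = Proteasome-associated human UCH37 deubiquitinase | amount = 0.15 nM proteasome as dispensed | medium = pH 7.4 Tris-HCl (50 mM) with ovalbumin, ATP-MgCl2, DTT | incubation = 30 min preincubation with enzyme, 25 min cleavage at room temperature | detection = AMC fluorescence 355/460 nm | read-out basis = percent inhibition | controls = no-proteasome and no-compound wells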
# Calb FLC – C. albicans growth inhibition with fluconazole, primary screen, CaCi-2 strain, Alamar Blue fluorescence. C. albicans CaCi-2 (fluconazole-resistant clinical isolate) + fluconazole, 48 h. growth inhibition, % (no concentration beside the values). 0.57% of 300,000 active. AID 1979, 2009;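 active = most replicates above 75%; inconclusive = exactly half above 75%; inactive = most below 75%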;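 also: all wells also contain fluconazole at 8 µg/ml as a sub-toxic cotreatment; 0% = median of DMSO wells and 100% = median of geldanamycin control wells; wells of about 8 µL received 7.5 nL stock; the first replicate is given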
# Beta2AR agonist – beta2AR agonists driving receptor internalization, primary screen, cell-based, FAP fluorogen, flow cytometry. Beta-2 adrenergic receptor (Homo sapiens), P07550. Am2.2-beta2AR cells; reference of the scale not given here. response, % (test concentration not listed). 0.43% of 340,000 active. AID 504454, 2011;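 active = response above a set limit, near 3 SD of response in nonfluorescent compounds, cut at about 42% in these data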;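 also: stock transfer was 100 nL into about 11 µL; a reference agonist was the positive control; negative values mostly stem from fluorescent compounds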
# Beta apoptosis – inhibitors of cytokine-induced beta cell apoptosis, primary screen, luminescence. INS-1E cytokine-induced death, ATP luminescence, 48 h; percent of positive-control rescue, neutral wells zero. protection from apoptosis, % (no concentration beside the values). 0.8% of 300,000 active. AID 435005, 2010;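 active = all replicates at 75% or more, or half of them and the mean; inconclusive = half reach 75% but not the mean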;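 also: 0% = cytokine-treated negative control wells and 100% = positive control rescue; higher means more ATP so stronger rescue from cytokine killing; wells of about 40 µL received 100 nL stock; the first replicate is given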
# LANA-H2A inh – blockers of LANA interaction with H2A/H2B – biochemical, FP readout, HTS, primary screen; Protein LANA1 (Human herpesvirus 8 type P (isolate GK18)), Q9QR71; cell-free LANA-H2A/H2B peptide, fluorescence polarization; inhibition, % (no concentration beside the values); 0.6% of 320,000 active; AID 2629, 2010; in the data active = inhibition mostly above about 10%, no sharp cut-off; inactive = mostly below about 6.7%;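 also: stock transfer was 7.5 nL into about 10 µL; 0% = median of vehicle wells and 100% = median of positive control wells; one replicate is shown; the record names a cut of 25% in any replicate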
# Target sequence (Q9QR71 whole entry, looked up): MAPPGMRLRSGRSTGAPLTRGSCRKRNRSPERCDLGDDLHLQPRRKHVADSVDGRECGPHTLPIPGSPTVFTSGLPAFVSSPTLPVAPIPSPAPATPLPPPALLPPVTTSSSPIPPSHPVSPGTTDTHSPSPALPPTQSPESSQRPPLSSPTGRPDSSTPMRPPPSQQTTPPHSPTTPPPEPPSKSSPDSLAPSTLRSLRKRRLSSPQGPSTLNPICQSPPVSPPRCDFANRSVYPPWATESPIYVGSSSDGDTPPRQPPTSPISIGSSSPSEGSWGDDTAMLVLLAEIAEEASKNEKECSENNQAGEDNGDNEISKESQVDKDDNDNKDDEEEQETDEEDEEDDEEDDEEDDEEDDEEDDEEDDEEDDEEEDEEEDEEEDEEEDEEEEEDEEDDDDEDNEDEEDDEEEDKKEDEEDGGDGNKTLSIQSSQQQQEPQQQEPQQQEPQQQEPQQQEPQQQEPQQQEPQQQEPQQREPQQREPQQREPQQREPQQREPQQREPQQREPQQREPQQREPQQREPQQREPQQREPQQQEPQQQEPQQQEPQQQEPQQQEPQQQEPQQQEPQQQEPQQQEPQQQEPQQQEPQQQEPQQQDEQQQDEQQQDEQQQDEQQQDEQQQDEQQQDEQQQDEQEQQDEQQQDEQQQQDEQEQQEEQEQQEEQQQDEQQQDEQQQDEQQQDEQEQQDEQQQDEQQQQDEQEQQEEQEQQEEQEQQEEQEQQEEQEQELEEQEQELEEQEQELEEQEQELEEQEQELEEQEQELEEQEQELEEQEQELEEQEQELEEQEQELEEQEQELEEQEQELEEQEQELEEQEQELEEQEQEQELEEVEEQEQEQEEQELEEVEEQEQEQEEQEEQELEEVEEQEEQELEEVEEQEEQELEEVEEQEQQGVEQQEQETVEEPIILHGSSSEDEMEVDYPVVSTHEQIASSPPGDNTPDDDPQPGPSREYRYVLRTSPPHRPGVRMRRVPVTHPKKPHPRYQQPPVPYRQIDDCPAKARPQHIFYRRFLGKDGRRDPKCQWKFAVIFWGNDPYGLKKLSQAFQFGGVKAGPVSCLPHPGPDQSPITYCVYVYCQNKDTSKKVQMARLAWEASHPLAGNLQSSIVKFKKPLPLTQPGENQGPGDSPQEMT
# Bfl-1 A1 inh – caspase 3/7 activation in MEF A1-2A-BIM cells, primary screen, A1 inhibitor project, cell-based, luminescence, HTS. 0.066% of 330,000 active. AID 2462, 2010. Caspase-Glo 3/7 luminescence, 3 h; percent of clofoctol response, vehicle zero. caspase activation, % (concentration not given with the values);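 active = over half of replicate activation scores above 10%, or exactly half above 10 with the replicate mean above 10; inconclusive = replicate mean below 10 yet half the replicates above 10; inactive = over half of replicates below 10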;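 also: wells of about 30 µL received 50 nL stock; many hits fall short of the cut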
# RanGTP-Impb inh – inhibitors of RanGTP-importin-beta interaction, primary screen, biochemical, FRET, CFP-Ran, YFP-importin-beta, homogeneous. Ran GTPase (GTP-bound) - importin-beta complex. cell-free CFP-Ran/YFP-importin-beta FRET ratio. inhibition, % (concentration not given with the values). 1.1% of 300,000 active. AID 2216, 2009;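 active = most replicates above 15%; inconclusive = exactly half above 15%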;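 also: 0% = DMSO wells and 100% = Ran loaded with GDP instead of GTP; wells of about 40 µL received 100 nL stock; the first replicate is given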
# T cruzi repl – inhibitors of intracellular T. cruzi growth, primary screen, luminescence, NIH3T3 host cells; T. cruzi beta-gal in NIH3T3, 90 h; AID 1885, 2009; 1.4% of 300,000 active; inhibition, % (test concentration not listed);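 active = mean inhibition across valid replicates above about 55%, limit read from the data; inconclusive = mean below that limit but half or more replicates reach it; inactive = mean below it, under half of replicates reach it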;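 also: signal also drops with host cell toxicity which is not excluded here; 0% = plate median of DMSO wells and 100% = zero luminescence signal; higher percent means less beta-gal luminescence so fewer parasites; stock transfer was 50 nL into about 50 µL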
# An asterisk follows results filed as active; u = inconclusive; x = no result given.
# The opening three records as a preview:
SMILES	UCH37 DUB inh	Calb FLC	Beta2AR agonist	Beta apoptosis	LANA-H2A inh	Bfl-1 A1 inh	RanGTP-Impb inh	T cruzi repl
O=C(Nc1ccccc1-c1ccccc1)c1cnccn1	-7.5	u	-18	-5	0.4	0.2	1.1	-4
N#Cc1c(Cl)cccc1N1CCCC1	-11	4	-4	0	-0.1	0.9	1.0	-5
CSc1ccc(CN(C)C(=O)C(Cc2ccccc2)NC(=O)c2ccccc2)cc1 (stereo unspecified)	4.1	-2	11	5	-1.0	0.2	-1.1	9

# Main list, previewed entries included:
SMILES	UCH37 DUB inh	Calb FLC	Beta2AR agonist	Beta apoptosis	LANA-H2A inh	Bfl-1 A1 inh	RanGTP-Impb inh	T cruzi repl
O=C(Nc1ccccc1-c1ccccc1)c1cnccn1	-7.5	u	-18	-5	0.4	0.2	1.1	-4
N#Cc1c(Cl)cccc1N1CCCC1	-11	4	-4	0	-0.1	0.9	1.0	-5
CSc1ccc(CN(C)C(=O)C(Cc2ccccc2)NC(=O)c2ccccc2)cc1 (stereo unspecified)	4.1	-2	11	5	-1.0	0.2	-1.1	9
COc1ccc(-c2noc(CCC(=O)NC3CCN(Cc4ccccc4)CC3)n2)cc1	2.4	-2	-5	5	0.4	-0.5	-2.9	50
O=C(CC1(O)C(=O)Nc2ccccc21)c1ccccc1 (stereo unspecified)	3.5	-49	-7	-14	2.3	-1.2	4.2	4
O=C(O)CSc1nnc(-c2ccccc2O)n1Cc1ccccc1	2.0	5	-4	-4	5.4	-0.6	4.1	-5
C/C(=N/NS(=O)(=O)c1ccc(Cl)cc1)c1cccc(O)c1	x	-14	0	-5	1.3	-0.3	1.5	3
COc1ccc(NS(=O)(=O)c2ccc(C)c(C(=O)N3CCCCCCC3)c2)cc1	-2.2	-3	-4	-1	-4.2	-0.1	2.0	3
COc1ccc(OC)c(S(=O)(=O)N/N=C(/C)c2c[nH]c3ccccc23)c1	x	u	-5	-9	-0.3	0.8	-3.2	7
CCOc1ccc(C(=O)NC(C)(C)CC)cc1	-2.5	-18	-2	x	1.6	0.0	-1.8	1
O=C(COc1cccc2ccccc12)N1CCN(c2ccccn2)CC1	-0.3	4	-6	-1	-1.9	-0.5	3.5	3
O=C(CSc1nc2ccccc2s1)NC(=O)NCc1ccco1	0.5	-2	-7	-8	5.0	-0.7	3.1	8
Cc1c(C(=O)CN2CCSCC2)c2ccccc2n1C	4.7	-28	-8	4	0.9	0.5	-4.6	7
COc1ccc(C(CNC(=O)Nc2cccc(C)c2)N2CCN(C)CC2)cc1 (stereo unspecified)	-1.2	-13	-1	1	-5.9	-0.1	-3.8	14
COC(=O)c1ccc2nc(NC(=O)CN3C(=O)CCC3=O)sc2c1	2.3	0	-5	-4	-1.2	-1.1	-1.7	-9
Cn1nc(C(=O)Nc2ccc(S(=O)(=O)Nc3ncccn3)cc2)ccc1=O	0.7	5	8	-21	-3.9	0.2	1.5	-13
Cc1cc(S(=O)(=O)Nc2cccnc2)c(Cl)cc1Cl	1.9	1	1	x	3.7	-0.4	0.2	-13
O=C(O)CCSc1nnc(SCC(=O)NCC(F)(F)F)s1	2.2	14	4	-2	-2.4	1.2	-0.4	-1
Cc1ccc(/C=N/NC(=O)c2cc3c(s2)CCCC3)o1	x	x	2	2	1.5	-0.6	x	x
Cc1ccc(C(=O)O)cc1N=Cc1cc(Br)cc(Br)c1O	-0.7	-17	9	-2	16	0.1	-17	6

# New compounds follow:
SMILES	UCH37 DUB inh	Calb FLC	Beta2AR agonist	Beta apoptosis	LANA-H2A inh	Bfl-1 A1 inh	RanGTP-Impb inh	T cruzi repl
C[C@H](NC(=O)[C@@H]1Cc2ccccc2CN1C(=O)OC(C)(C)C)C(=O)NCC1CCCO1 (stereo partly specified)	-1.5	-1	-4	2	-0.5	-0.4	0.7	-4
Cc1cc(/C=N\NC(=O)CC(=O)NC2CCCCC2)c(C)n1-c1ccc(Cl)c(Cl)c1	x	-18	56*	-2	1.0	-0.2	u	2
Cc1cccc(CNc2ccc(C(CC(N)=O)NC(=O)c3cccc(Br)c3)cc2[N+](=O)[O-])c1 (stereo unspecified)	0.4	-8	-5	3	3.3	0.5	u	1
CN(C)C(=O)CN1CCN(c2nc3nonc3nc2N2CCCCC2)CC1	9.8	12	-2	-4	2.5	-0.1	-0.7	3
CC(=O)Nc1ccc(S(=O)(=O)N2CCN(C(=O)c3ncoc3-c3cccc(F)c3)CC2)cc1	4.7	8	-2	3	-4.9	-0.2	1.7	-1
Cc1onc(-c2ccccc2Cl)c1C(=O)N1CCCc2ccccc21	3.8	12	2	-3	-3.0	-0.2	1.9	13
CCOC(=O)c1ccc(NC(=O)CSC2=NN3CCCC(=O)N=C3S2)cc1	4.4	-4	-3	-9	-2.3	0.3	-1.5	-27
O=C(c1nnc(-c2ccc(Cl)cc2)o1)C1CCCC1	1.7	-15	0	4	3.1	0.2	1.2	-3
O=C(NC1CCCC1)C(c1ccncc1)N(Cc1ccccc1F)C(=O)c1csnn1 (stereo unspecified)	0.6	-1	-5	0	-3.9	0.3	4.5	8
Cc1oc(C(C)(C)C)cc1C(=O)NCC(=O)NCC(=O)O	3.4	1	5	-5	-1.9	2.2	-2.5	-3
CCc1nc(SCc2cccnc2)c(C#N)cc1C	-1.6	16	-4	-4	0.8	0.6	4.4	12
CCN(CC)c1ccc2cc(C(=O)Nc3ccccn3)c(=O)oc2c1	-21	7	-15	11	5.9	-4.6	161*	17
Cc1cc(C)c2nc(N3CCCN(C(=O)c4cnccn4)CC3)c(C#N)cc2c1	-6.5	27	6	3	-1.4	0.0	39*	3
O=C(NC1CCCc2ccccc21)c1ccccc1Cl (stereo unspecified)	0.5	-27	0	2	-1.3	-0.5	2.2	5
Cc1cc(C)n(-c2ccccc2C#N)n1	-19	4	-9	2	1.2	-0.7	-2.7	-11
O=C(/C=C/c1ccc(-c2ccccc2[N+](=O)[O-])o1)c1ccccc1	x	-4	-4	-3	3.6	-1.1	-3.1	-8
COc1ccc(C2NC(=O)NC(C)=C2[N+](=O)[O-])cc1 (stereo unspecified)	4.9	1	-1	x	-3.4	-0.9	-4.7	-5
NS(=O)(=O)c1ccc(CCNC(=O)c2ccc(Cl)s2)cc1	3.3	-1	-3	0	-4.6	0.3	4.5	1
Cc1cc(C(F)F)n2nc(C(=O)Nc3cccc(S(=O)(=O)N4CCOCC4)c3)nc2n1	0.1	0	-3	-27	2.1	-0.3	5.0	-12
CCCn1nnc(NC(=O)c2cccc(OCC(C)C)c2)n1	2.9	-3	-4	-6	0.8	-0.6	-1.8	-29

# New compounds follow
SMILES	UCH37 DUB inh	Calb FLC	Beta2AR agonist	Beta apoptosis	LANA-H2A inh	Bfl-1 A1 inh	RanGTP-Impb inh	T cruzi repl
COc1ccc(S(=O)(=O)N2c3ccccc3OCC2C(C)(C)C)cc1 (stereo unspecified)	0.4	1	6	x	3.6	0.0	2.9	-41
COc1ccc(C(=O)Nc2cccc(/C(C)=N/NC(=O)c3ccc([N+](=O)[O-])c(C)c3)c2)cc1OC	x	-2	15	6	-0.8	0.6	5.1	11
COc1ccccc1CNC(=O)Cc1cc(=O)[nH]c(=O)[nH]1	3.8	-3	1	-3	0.2	0.2	8.5	6
Cc1ccc(CC(=O)Nc2cc(C)ccn2)cc1	1.8	2	1	-2	4.6	0.1	-2.6	0
Cc1[nH]n(-c2ccccc2)c(=O)c1N=Nc1ccccc1	2.5	6	-2	-6	-1.0	-0.2	4.5	-2
Cc1nnnn1/C(=C\c1ccccc1)C(=O)OCC(=O)NC(C)(C)C	1.3	-14	19	-14	x	-0.5	1.1	0
CC(NC(=O)CNC(=O)c1sc2ccccc2c1Cl)c1cccnc1 (stereo unspecified)	6.4	-10	-8	3	22*	-0.6	3.6	3
Cc1c(NC(=O)Nc2ccccc2)c(=O)n(-c2ccccc2)n1C	3.6	-4	-3	3	1.0	-0.8	-0.4	-6
O=C(COn1nnc2ccc(Cl)cc21)NC12CC3CC(CC(C3)C1)C2	-1.1	-32	-11	6	-5.3	-0.1	2.6	15
Cc1ccc2c(c1)c1ncnc(N3CCOCC3)c1n2C	-430	-4	-4	11	-2.4	0.6	-1.1	-21
CCOc1ccccc1/C=N/NC(=O)c1nnn(-c2nonc2N)c1CN1CCCC1	x	-6	1	-7	-2.3	-0.4	u	4
O=C(Nc1ccsc1C(=O)O)c1cccc(C(F)(F)F)c1	x	-3	5	3	-2.5	-4.1	4.3	5
CCOC(=O)CSc1nnnn1-c1cc(OC)ccc1OC	0.4	-14	-2	-1	0.5	-0.7	1.8	-15
Cc1ccc(C(=O)Nc2ccc(C(=O)N/N=C/c3ccncc3)cc2)cc1	x	-18	x	5	-9.4	-0.3	1.5	12
CCn1c2ccccc2c2cc(NC(=O)CSc3nnc(-c4cccc(F)c4)o3)ccc21	0.3	-6	14	7	0.3	-0.1	2.3	-3
CCOc1ccc(Cl)cc1S(=O)(=O)NC1CCCC1	2.6	-2	-6	-3	-0.9	0.3	2.7	13
O=C(Nc1ccc(Cl)cc1C(=O)NCC1CCCO1)c1ccco1 (stereo unspecified)	0.0	-26	-1	-5	-1.1	-0.3	2.5	-6
Cc1ccccc1NC(=O)/C(=C/c1cccs1)NC(=O)c1ccco1	3.2	-5	-8	-1	1.2	-0.7	-0.3	-2
COc1cc(/C=C2\CCCc3c2nc2ccccc2c3C(=O)O)cc(Cl)c1O	x	11	3	-3	0.9	0.4	u	6
Cn1c(N)c(S(=O)(=O)N2CCN(c3ccccc3)CC2)c(=O)n(C)c1=O	1.9	-8	3	-1	-3.5	0.8	u	4

# New compounds follow.
SMILES	UCH37 DUB inh	Calb FLC	Beta2AR agonist	Beta apoptosis	LANA-H2A inh	Bfl-1 A1 inh	RanGTP-Impb inh	T cruzi repl
CCCn1nnc(NC(=S)NC(=O)/C=C/c2ccc(Cl)cc2)n1	5.5	-3	0	-3	0.0	1.5	0.2	-1
COc1ccccc1CCC(=O)N1CCC(n2nccc2NC(=O)CC(C)C)CC1	1.6	2	-1	1	2.5	2.1	-6.5	11
O=C(NCCO)/C(=C\c1ccc(Br)cc1)NC(=O)c1cccs1	0.7	-2	12	3	1.1	-0.8	u	1
CC(=O)c1c(C)[nH]c(C(=O)OCC(=O)NCc2ccc(Cl)cc2)c1C	-2.9	x	1	-4	1.8	u	x	x
CCOC(=O)N1CCN(C(=O)c2cc3cc(C)ccc3[nH]2)CC1	0.7	27	-9	2	13*	-0.3	-0.6	2
Cc1ccccc1NC(=O)c1sc2nc[nH]c(=O)c2c1C	1.0	5	6	2	-0.8	0.1	7.5	-14

# Compound activity (PubChem)
